Screening data: PubChem BioAssay, National Center for Advancing Translational Sciences (NCATS)
Vaccinia Venus – inhibitors of vaccinia virus (Venus reporter); AID 720580; Potency, µM (top dose mostly 36.5 µM), without a hit: at the highest dose activity change, negative = inhibition, actives largely listed as inhibitors; 0.46% of 330,000 active; Vaccinia virus Venus reporter expression, fluorescence; active means well fitted inhibition curve with a large enough effect; inconclusive means small, poorly fitted or top-dose-only effect; inactive means no such curve, though single readings can be large or run the other way; tested in A549 cells; also: nearly all actives have a fitted effect of over 30% in size; inactives centre near -10
Vaccinia mCherry – inhibitors of vaccinia virus infection (mCherry reporter signal); Vaccinia virus mCherry reporter infection, fluorescence; about a quarter of the inactives have no number; Potency, µM (series often up to 36.5 µM), without a hit: top-dose activity change, negative = inhibition, hits mostly inhibitors; 0.63% of 310,000 active; active = well fitted inhibition curve with a large enough effect; inconclusive = small, poorly fitted or top-dose-only effect; inactive = no such curve, though single readings can be large or run the other way; tested in A549 cells; also: nearly all actives have a fitted effect of over 35% in size; inactives centre near -10
An asterisk follows results filed as active; i = inactive; ? = inconclusive; / = not tested or not shown; & = joins results of further samples; [ ] = another dose, or the depositor's remark. % is scaled to controls: 0 for no effect and ±100 for the full control effect; potency is read from the fitted curve at half-maximal effect. Hits appear at their usual frequency. Share with any hit: about 0.87%.

SMILES | Vaccinia mCherry | Vaccinia Venus
CCOc1cc(Br)c(/C=C2/C(=O)N(C)C(=S)N2CC(=O)OC)cc1OC | i | 2%
Nc1nc(SCc2ccccc2)c2ncn(C3CCCO3)c2n1 (stereo not given) | i | -10%
O=C(NC1CCCCC1)c1ccc2c(c1)N(Cc1cccc(F)c1)C(=O)c1ccccc1S2 | -19% | -10%
c1ccc(OCc2nnc3sc(-c4cccs4)nn23)cc1 | -6% | -3%
Cc1ccc(C2=NNC(C(O)C(O)C(O)C(O)CO)S2)cc1 (stereo not given) | -16% | -3%
CCO[C@@H]1OC(C(=O)N2CCN(Cc3ccc4c(c3)OCO4)CC2)=C[C@H](c2ccc3c(c2)OCO3)[C@H]1CCCO | i | -26%
COc1ccc(C(OC(=O)c2c(C)noc2C)C(=O)NC2CCCC2)cc1 (stereo not given) | -11% | -5%
Cc1cccc(C(=O)Nc2c(-c3ccc(F)cc3)nc3ccccn23)c1 | -2% | -11%
S=c1nc(C2CCCCC2)[nH]c2ccccc12 | -1% | 1%
Cc1cc(C)c2oc(C(=O)Nc3c(C(=O)Nc4ccccc4)oc4ccccc34)cc(=O)c2c1 | -3% | -6%

Later entries:
SMILES | Vaccinia mCherry | Vaccinia Venus
Cc1ccc(C(=O)CCC(=O)N(C)CC(=O)Nc2c(Cl)cccc2Cl)cc1 | -26% | -12%
CCn1c(SC(C)C(=O)Nc2nccs2)nnc1-c1ccncc1 (stereo not given) | -6% | -8%
Cc1ccc(S(=O)(=O)Nc2ccc3c(c2)nc(CCN2CCCCC2)n3C)cc1 | i | -19%
O=C(c1ccccc1)c1nnc(-c2ccccc2F)o1 | -14% | -20%
Cc1cccc(Cl)c1NNC(=O)Nc1c([N+](=O)[O-])c(C)nn1C | i | -13%
Cc1noc(C)c1S(=O)(=O)Nc1ccc(C(=O)N2CCc3ccccc3C2)cc1 | -12% | -3%
CC(O)[C@H]1CNCCN1CC1(c2ccccc2)CC1 (stereo not given in full) | i | -10%
CC(C)c1cc(Cn2c3ccccc3c(=O)n2C(C)Cn2cc(CCc3ccccc3)nn2)on1 (stereo not given) | -3% | -7%
COC(=O)CSc1nc2ccc(C)cc2[nH]1 | / | -21%
Cc1ccc(Cl)cc1N1CCN(C(=O)c2cc(S(=O)(=O)N3CCCC3)c[nH]2)CC1 | -26% | -15%

Other results
SMILES | Vaccinia mCherry | Vaccinia Venus
COc1ccccc1-n1c(SCC(=O)Nc2cccc3ccccc23)nc(O)cc1=O | ? | -19%
COC(=O)c1c(NC(=O)c2ccc(C(=O)c3ccccc3)cc2)sc2c1CC(C)(C)NC2(C)C | -25% | ?
COc1nc2c(C)cccc2cc1-c1noc(-c2ccco2)n1 | / | -16%
CCCCc1nc2n[nH]c(N)c2c2c1CSC(C)(C)C2 | / | -12%
CCN(CC)S(=O)(=O)c1cccc(NC(=O)c2cccc(S(=O)(=O)N3CCCC3)c2)c1 | -12% | -26%
CCN(CC)CCNC(=O)C(=O)NCC(c1cccnc1)N1CCN(c2ccc(F)cc2)CC1 (stereo not given) | 0% | -5%
CSc1nsc(SCC(=O)N2CCc3ccccc32)n1 | / | -15%
Cc1ccc(C)c(S(=O)(=O)Nc2ccc3scnc3c2)c1 | i | ?
O=C(c1ccncc1)N1N=C(C2CCCCC2)CC1(O)C(F)(F)F (stereo not given) | -4% | 2%
COc1ccc(CNC(=O)C(c2ccc(C)cc2)N(Cc2cccs2)C(=O)c2ccc3c(c2)OCCO3)cc1 (stereo not given) | -18% | -26%

Single records, from the list above. Values in the order: Vaccinia mCherry	Vaccinia Venus
`COc1ccccc1-n1c(SCC(=O)Nc2cccc3ccccc23)nc(O)cc1=O` in the list: ?	-19%
`O=C(c1ccncc1)N1N=C(C2CCCCC2)CC1(O)C(F)(F)F` (stereo not given) in the list: -4%	2%
`CCN(CC)CCNC(=O)C(=O)NCC(c1cccnc1)N1CCN(c2ccc(F)cc2)CC1` (stereo not given) in the list: 0%	-5%

Later entries.
SMILES | Vaccinia mCherry | Vaccinia Venus
O=C(CCCC(=O)N(CC(=O)NC1CCCC1)c1ccc(F)c(Cl)c1)Nc1ccccn1 | -5% | -4%
Cc1cc(C)c2c(N)c(C(=O)NCc3ccco3)sc2n1 | / | -17%
COc1ccc(-c2cnc3c(NC(C)=O)cc(-c4ccccc4CN(C)C)cn23)cc1OC | i | -15%
CCCNC(=O)N[C@H]1C=C[C@H](CC(=O)OC)O[C@@H]1CO | 0% | 3%
O=C(CSc1nnc(-c2ccc3c(c2)OCO3)o1)Oc1ccccc1 | -10% | -8%
Cc1c(NC(=O)c2cc3ccccc3c(=O)s2)c(=O)n(-c2ccccc2)n1C | 1% | -8%
O=C(Cn1cnc2c(nnn2Cc2ccccc2F)c1=O)NCc1ccco1 | -24% | -11%
CC(=O)N1[C@H](C)C=C[C@]1(Cc1ccccc1)C(=O)O | -9% | -2%
Cc1c(NC(=S)N/N=C\c2ccccc2O)c(=O)n(-c2ccccc2)n1C | 13µM* | ?
Brc1cc(-c2ccccc2)nc(-c2ccccc2)n1 | i[7.34 µM] | -1%[7.34 µM]

Other entries follow.
SMILES | Vaccinia mCherry | Vaccinia Venus
Cc1sc2ncn(CC(=O)NCC(=O)N3CCN(c4ccc(F)cc4)CC3)c(=O)c2c1C | -13% | 5%
Cc1noc(C)c1Cn1nc(C(=O)O)c2ccccc2c1=O | / | -9%
Cc1ccc(C(=O)N/N=C/c2ccc(-c3cccc(C(F)(F)F)c3)o2)cn1 | ? | ?
C[C@H](NC(=O)C1CCN(S(=O)(=O)c2ccccc2)CC1)C(=O)NCc1ccc(Cl)cc1Cl | -22% | -15%
COc1ccc(-n2c(/C=C/c3cccc(F)c3)nc3ccccc3c2=O)c(OC)c1 | i | -12%
COc1ccc(N(CC(=O)N2CCCCCC2)S(=O)(=O)c2ccc(OC)c(OC)c2)cc1 | i | 0%
ClCC1=Nc2ccccc2Cc2ccccc21 | -7% | 2%
CCN1CCN(C(=O)c2ccc3c(c2)N(Cc2cccc(Cl)c2)C(=O)c2ccccc2S3(=O)=O)CC1 | -9% | -13%
COc1cccc(/C=N/Nc2snc(SC)c2C#N)c1 | / | ?
Cc1ccnn1CCC(=O)N1CCCC(Nc2ccc(F)c(F)c2)C1 (stereo not given) | -21% | -19%

(next part)
SMILES | Vaccinia mCherry | Vaccinia Venus
O=C(CN1CCN(Cc2ccc(F)cc2)C1=O)NCc1ccccc1 | 15% | 19%
COc1cccc(C(O)c2nc(-c3cnn(C)c3)cs2)c1 (stereo not given) | 17% | -2%
COc1ccc(-c2noc(-c3ccccc3C(=O)NCC3CCCO3)n2)cc1 (stereo not given) | i | -11%
COCc1c(C(=O)Nc2nnc(C3CC3)s2)oc2ccccc12 | -27% | -12%
CN(C)C(=O)c1ccc(-c2nnc(NCc3ccccc3)c3ccccc23)cc1 | -1% | -23%
C[C@H]1COC(=O)CCCC/C=C\C[C@H](CC(=O)N(CCO)Cc2ccccc2)C(=O)N1 | -3% | -15%
CCn1ncc(CN2CCC(Oc3ccc(C(=O)N4CCCC4)cc3)CC2)c1C | -3% | -12%
Fc1ccccc1OCCSc1nc2ccccc2o1 | / | -18%
COc1ccc(NC(=O)c2cc(-c3ccc(F)cc3)no2)cc1OC | -6% | -8%
O=C(CCSCc1ccccc1Cl)NC1CCCC1 | i | -26%

More compounds.
SMILES | Vaccinia mCherry | Vaccinia Venus
CCOC(=O)c1c(C)n(-c2ccccc2)c2ccc(O)cc12 | -23% | -20%
Cc1c(C(=O)OCc2nc3scc(-c4ccccc4)c3c(=O)[nH]2)cccc1[N+](=O)[O-] | -25% | -19%
Cn1c(N)c(N2CCN(c3ccccc3)CC2)c(=O)[nH]c1=O | -16% | -4%
COc1ccccc1CNC(=O)Cn1c(=O)oc2cc(S(=O)(=O)N3CCC(C)CC3)ccc21 | -3% | -11%
Cc1ccc(SCCC(=O)OCn2nnc3ccccc3c2=O)cc1 | i | -9%
CC1CCCN(C(=O)C2CCN(S(=O)(=O)c3cccs3)CC2)C1 (stereo not given) | -19% | -14%
Nc1ccc(S(=O)(=O)O)cn1 | -13%&-2%&-4% | -4%&-3%&-10%
COc1ccc2c(c1)CCc1c(C(=O)NCc3cccnc3)noc1-2 | -21% | -13%
COCCNC(=O)C1(C)CCN(C(=O)C2(c3ccc(Cl)cc3)CCCC2)C1 (stereo not given) | i | 4%
COC(=O)C1=C(C(=O)OC)[C@@H]2N(C)c3ccccc3[C@@]23C[C@@H](C(=O)OC)N=C3N1 | -9% | 37%[activator]

More structures:
SMILES | Vaccinia mCherry | Vaccinia Venus
CCOc1ccc(-n2c(SCC(N)=O)nc3c([nH]c4ccccc43)c2=O)cc1 | i | -27%
O=C(CCC1CCCC1)NCCS(=O)(=O)N1CCN(c2ccccc2)CC1 | -25% | -20%
CCCc1ccc(C(=O)NNC(=O)c2ccc(Br)cc2)cc1 | -15% | -4%
COc1cc(/C=N/NC(=O)C(=O)N2CCCC2)ccc1O | -19% | -12%
CC(C)C[C@H]1CN=C(N(C)C)N1CCc1cccc(F)c1 | -20% | -23%
O=c1cc(N2CCN(Cc3ccccc3)CC2)[nH]c(=O)n1-c1cccc(C(F)(F)F)c1 | -11% | -4%
CCn1c(SCC(=O)Nc2ccc(NC(=O)c3ccco3)c(OC)c2)nc2ccccc2c1=O | i | -9%
CCc1ccccc1NC(=O)CN1CCN(CC(=O)Nc2cc(C)ccc2OC)CC1 | -6% | -20%
CCN(Cc1cc2cccc(C)c2[nH]c1=O)C(=O)c1ccccc1OC | / | -13%
O=C1Nc2ccccc2N=C(c2ccc3c(c2)OCO3)C1N(C(=O)c1ccc2ccccc2c1)C1CC1 (stereo not given) | -12% | -23%

Further compounds:
SMILES | Vaccinia mCherry | Vaccinia Venus
c1ccc2[nH]c(CCN3CCCCC3)nc2c1 | i | 3%
Cc1ccc2nc(N3CCN(C)CC3)c(C=O)c(=O)n2c1 | -10% | 5%
Cc1ccc(-c2nc(N)sc2CC(=O)OCC(=O)N2C(C)CCCC2C)cc1 (stereo not given) | -14% | -15%
O=S(=O)(NC1=NCCCCC1)c1cc(F)ccc1F | -4% | 13%
COc1ccc(S(=O)(=O)N(CC(=O)N/N=C/c2ccccc2C(=O)O)c2ccccc2OC)cc1 | ? | -12%
COc1cc(C2CC(=O)NC(SCC(=O)Nc3ccccc3C)=C2C#N)ccc1O (stereo not given) | / | -17%
C[N+](C)(CCCCCC[N+](C)(C)CCCN1C(=O)c2cccc3cccc(c23)C1=O)CCCN1C(=O)c2cccc3cccc(c23)C1=O | -11% | -3%
COc1ccc2oc(C(=O)Nc3cccc(S(=O)(=O)N4CCOCC4)c3)c(C)c2c1 | -17% | -16%
CCC(=O)Nc1cc(C)c(OC)c(C)c1 | -10% | -7%
CSc1ccccc1C(=O)N1CCc2ccc(NC(=O)c3ccccn3)cc2C1 | -14% | -30%

(cont.)
SMILES | Vaccinia mCherry | Vaccinia Venus
Cc1ccc(C2=Nc3ccccc3N=C(c3ccco3)C2)c(O)c1 | / | -11%
Cc1ccccc1CNC(=O)Cn1c(C)c2cnn(-c3ccccc3)c(=O)c2c1C | -2% | -9%
COc1cccc(/C=C2\SC(=S)N(CCC(=O)NNC(=O)c3ccccc3OC)C2=O)c1 | 15% | 17%
O=C(COC(=O)c1ccc(F)cc1F)Nc1ccc2[nH]c(=O)[nH]c2c1 | -6% | ?
CCOC(=O)NC(=O)COC(=O)CCCc1nc2ccccc2s1 | i | -8%
COc1ccc(NCc2nn(CC(=O)c3ccc(Br)cc3)c3[n+]2CCCCC3)cc1 | -2% | -8%
CCOC(=O)c1cc2occc2n1CC(=O)Nc1ccc(OC)cc1OC | i | -6%
CCOc1ccc(CNC(=O)C2CCN(c3nc4ccccc4nc3C(F)(F)F)CC2)cc1OC | -3% | -10%
Cc1ccc(CNC(=O)c2ccc3c(c2)nc(C)n3-c2cccc(F)c2)cc1 | -8% | 3%
CN1C(=O)SC(Nc2ccccc2)C1=O (stereo not given) | -6%[1.46 µM] | -8%

Continued.
SMILES | Vaccinia mCherry | Vaccinia Venus
COCCCN1C(=O)C(O)=C(C(C)=O)C1c1cccc(F)c1 (stereo not given) | ? | -2%
COc1ccc(NC(=O)N(C2CCCCC2)C2CCN(C(C)C)CC2)c(OC)c1 | -16% | -3%
Cc1cc(C)cc(Cn2ncc(Cl)c(Cl)c2=O)c1 | -14% | -2%
CCc1ccc(-c2ccc(C(=O)O)c(C)n2)cc1 | -9% | -9%
O=C(COc1ccc2c(c1)C(=O)CC1(CCCCC1)O2)NCc1ccccc1 | -23% | -6%
O=C(Cc1ccccc1)NCC(=O)N1CCc2ccccc2C1 | -7% | -4%
COc1ccc(-c2nc3ccccc3c(=O)n2NC(=S)N(C)C)cc1 | i | -4%
CC1=C(C(=O)N(C(C)C)C(C)C)CC(CC(=O)NC2CCCC2)C(=O)N1Cc1ccccc1 (stereo not given) | -1% | ?
COc1ccc(NC(=S)N(Cc2cccc(Br)c2)CC2CCC(C(=O)O)CC2)cc1 (stereo not given) | -8% | -18%
CCOC(=O)CCNC(=O)Nc1ccc2nc(C)n(Cc3ccccc3Cl)c(=O)c2c1 | -3% | -8%

Remaining list, next part.
SMILES | Vaccinia mCherry | Vaccinia Venus
CCOc1ccccc1N1CCN(C(=O)CNC(=O)c2sc3ccccc3c2Cl)CC1 | -19% | 4%
Cc1cc(C)c(C(=O)CSc2nc(C)cc(C)c2C(N)=O)c(C)c1 | -25% | -21%
Cc1cc(C)c(C)c(S(=O)(=O)N2CCC(C(=O)N3CC(C)CC(C)C3)CC2)c1C (stereo not given) | -10% | -22%
CN(C)c1ccc(C2C3=C(CCCC3=O)OC3=C2C(=O)CCC3)cc1 | / | -13%
COc1ccc(NC(=O)CSc2nc3nc(C)c(Cc4ccccc4)c(C)n3n2)cc1OC | -5% | -20%
